# Bioassay records as filed in PubChem BioAssay.
# VDR inh: Inhibitors of the vitamin D receptor (VDR): qHTS; VDR-SRC2-3 peptide fluorescence polarization, 2 h; 400,000 compounds, 0.93% hits; AID 504847, 2011; Vitamin D3 receptor (Homo sapiens), P11473; Potency, µM, for inactives: max response, negative = inhibition, usual class: inhibitors; active = well fitted inhibition curve with a large enough effect; inconclusive = small, poorly fitted or top-dose-only effect, or another doubt; inactive = no such curve, though single readings can be large or run the other way; also: series mostly up to about 120 µM
# Target sequence (P11473 whole entry, looked up): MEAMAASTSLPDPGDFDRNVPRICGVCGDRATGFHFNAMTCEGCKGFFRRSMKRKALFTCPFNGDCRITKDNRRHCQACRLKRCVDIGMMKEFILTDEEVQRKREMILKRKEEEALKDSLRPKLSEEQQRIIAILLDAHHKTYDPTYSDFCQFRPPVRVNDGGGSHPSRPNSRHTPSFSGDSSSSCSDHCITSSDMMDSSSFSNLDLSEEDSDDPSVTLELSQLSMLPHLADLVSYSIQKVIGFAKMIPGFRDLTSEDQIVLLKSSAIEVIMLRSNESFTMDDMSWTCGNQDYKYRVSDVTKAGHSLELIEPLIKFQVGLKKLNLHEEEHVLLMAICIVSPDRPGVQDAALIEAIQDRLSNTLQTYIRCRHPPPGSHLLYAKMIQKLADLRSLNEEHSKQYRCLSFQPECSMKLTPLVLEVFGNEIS
#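 Measured by FP: displacement of SRC2-3 coactivator peptide from VDR by library compounds, following a two-hour ambient incubation.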
# The depositor's hits bear a star; u = inconclusive; & = joins results of further samples; [ ] = dose if it differs, or a comment. % is scaled to controls: 0 for no effect and ±100 for the full control effect; potency is read from the fitted curve at half-maximal effect. The list is partial; the hit share may differ from the screen's.
VDR inh | mol
-10.0% | CC(C)=CC(=O)O[C@H]1[C@@H]2[C@H](C)C(=O)O[C@@H]2C[C@@H](C)[C@@H]2[C@@H](O)CC(=O)[C@]21C
23.1% | CCOCC(=O)Nc1nc2ccccc2s1
8.7% | O=C(Cc1ccccc1)Nc1ccc(NC(=O)c2ccco2)cc1Cl
1.9% | COc1ccc(S(=O)(=O)NCc2ccc(C(=O)N3CCc4ccccc4C3)cc2)cc1
1.7% | CC(=C/c1ccc(C(C)C)cc1)/C=N/NC(=O)Cn1nnnc1N
-13.0% | COc1ccc([C@H]2/C=C\CN(S(=O)(=O)c3ccc4ccccc4c3)[C@@H](C)C(=O)N2Cc2ccc(F)cc2)cc1
-11.0% | COc1ccc(C(=O)NNC(=O)COC(=O)c2sccc2C)cc1
u | Cc1ccc(C(=O)NCC(=O)N(C)CC(=O)Nc2ccccc2Br)s1
-10.1% | Cc1cc(C)n2ncc(/C(N)=N/OC(=O)Nc3ccccc3)c2n1
5.9% | COC(=O)CN1C(C(=O)c2ccccc2)=C(OC(=O)c2ccccc2)c2ccccc2S1(=O)=O
-8.6% | CC(=O)C1=C(O)C(=O)N(c2ccc(S(=O)(=O)Nc3nccs3)cc2)C1c1ccc(F)cc1 (stereo unspecified)
-15.1% | COC(=O)c1c(NC(=O)c2nc(SCc3ccc(F)cc3)ncc2Cl)sc2c1CCCC2

VDR inh | mol
-20.7% | Cc1ccccc1-n1c(CSC(=N)N)nc2ccccc2c1=O
-25.2% | CCOC(=O)N1CCN(C(=O)c2oc3ccc(S(=O)(=O)N4CCCCCC4)cc3c2C)CC1
-14.9% | Cc1c(NC(=S)NC(=O)CC(C)C)c(=O)n(-c2ccccc2)n1C
-16.4% | CCN(CC)CCCNC(=O)c1cc2c(=O)n(C)c3ccccc3c2n1C
-8.8% | COc1cccc(C(=O)N(C)c2nnc(-c3ccncc3)s2)c1
-16.5% | COc1ccc(/C=C/C2=CC(C)(C)NC(=S)N2)c(OC)c1
-3.8% | COc1ccc2c(c1)CCC/C2=N\NC(=O)c1ccoc1C
-14.3% | COc1ccc(C2(C(=O)Nc3ccc(S(N)(=O)=O)cc3)CCCC2)cc1
-8.4% | O=C(Nc1ccc(S(=O)(=O)N2CCOCC2)cc1)c1cc(-c2ccccc2O)n[nH]1
-5.2% | CSCCC(C(=O)NCc1cccs1)N1C(=O)c2ccccc2C1=O (stereo unspecified)
u | Cn1nc(-c2ccc(Cl)cc2)nc2c(=O)n(C)c(=O)nc1-2
-13.3% | COc1ccc(-n2nc(C(=O)NCC(=O)NC3CCCCCC3)c3ccccc3c2=O)cc1OC

VDR inh | mol
-0.6% | C/C(=N/NC(=O)CNC(=O)c1ccccn1)c1ccc([N+](=O)[O-])cc1
-0.3% | Cc1ccc(C)c(CN2C(=O)c3ccccc3S(=O)c3ccc(C(=O)NCCCN4CCCC4)cc32)c1 (stereo unspecified)
-4.9% | COC(=O)c1sccc1NC(=O)CC1C(=O)NCCN1C(=O)c1ccc(C)c(C)c1 (stereo unspecified)
-16.8% | CCc1ccc(Oc2cc(Cl)nc(N)n2)cc1
9.8% | O=C(NCc1ccccc1Cl)NCc1noc2ccccc12
11.4% | Nc1nonc1-c1nc2ccccc2n1Cc1ccc(Cl)cc1
-3.4% | N#Cc1ccccc1Cn1c(=O)n(CCCC(=O)NCc2ccc3c(c2)OCO3)c(=O)c2sccc21
u | COc1ccccc1NS(=O)(=O)c1cc(NC(=O)C2CCCC2)ccc1N1CCOCC1
-1.7% | COc1ccc(N2C(=O)c3ccccc3NC2c2ccc(OC)c(COc3ccc(NC(C)=O)cc3)c2)cc1 (stereo unspecified)
28.6% | Cc1c(C)c2ccc(OCC(=O)c3ccccc3)cc2oc1=O
10.2% | O=c1c2ccccc2nc(CSc2nnnn2-c2ccccc2)n1-c1cccc(C(F)(F)F)c1
6.1% | Cc1nn(-c2nc3ccccc3[nH]2)c(N)c1-c1ccccc1

VDR inh | mol
-23.4% | CCCc1c(C(=O)N/N=C/c2ccccc2C(F)(F)F)nnn1-c1nonc1N
13.4% | CCc1ccccc1NC(=O)Cn1nc(N2CCN(c3ccccc3OC)CC2)ccc1=O
-3.5% | Cc1ccc2c(c1)N(C(=O)CCC(=O)NCCCN1CCN(C)CC1)CC(C)O2 (stereo unspecified)
-11.7% | CCCCCc1cc(OC)cc2c1C(=O)OC(C)(C)O2
-15.8% | CCOC(=O)c1cc2c(=O)n3ccccc3nc2n(Cc2ccco2)c1=NC(=O)c1ccc(F)cc1
7.6% | CN(C)C(=O)CN1C(=O)C2CCCCN2C(=O)c2ccccc21 (stereo unspecified)
-13.7% | COc1ccc(N(CC(=O)NCCc2ccccc2)S(=O)(=O)c2c(C)nn(C)c2C)cc1
-1.1% | CC1C(C#N)=C(N)OC2=C1C(=O)CC(C)(C)C2 (stereo unspecified)
4.6% | CCOC(=O)c1ccc(N2C(=O)c3n[nH]c(C)c3C2c2ccccc2)cc1 (stereo unspecified)
-0.8% | CC(=O)Nc1ccc(NC(=O)C(C)OC(=O)C2CCN(S(=O)(=O)c3ccc4c(c3)OCCO4)CC2)cc1 (stereo unspecified)
32.5%[activator] | O=C(CN1CCCC1)Nc1ccc([N+](=O)[O-])cc1Cl
-2.1% | CCN(CC)C(=O)c1sc2c(c1C)c(=O)n(Cc1ccccc1)c(=O)n2Cc1cc(C)ccc1C

VDR inh | mol
8.6% | Cc1cccc2sc(NC(=O)c3cc(S(=O)(=O)N(C)C)ccc3N3CCCC3)nc12
-8.3% | CCCCn1c(N)c(N(CCOC)C(=O)c2ccc(N3C(=O)CCC3=O)cc2)c(=O)[nH]c1=O
-15.7% | COc1ccccc1N1C(=NC(=O)CCC2CCCC2)SC2CS(=O)(=O)CC21 (stereo unspecified)
-20.0% | CCOC(=O)c1cc2c(=O)n3ccccc3nc2n(C(C)C)c1=NC(=O)C(C)(C)Oc1ccc(Cl)cc1
-3.1% | CCc1c(C)nc(N)n2c(SCC(=O)N3CCCc4ccccc43)nnc12
u | CCCN(CC(=O)Nc1ccccc1C)C(=O)c1ccc(-c2ccc([N+](=O)[O-])cc2)o1
-7.6% | Cc1cc(SCC(=O)OCC(=O)N2CCCC2=O)c(C)cc1Br
2.2% | Cc1ccc(NC(=O)COC(=O)c2ccc3c(c2)NC(=O)C2CCCN32)cc1 (stereo unspecified)
-5.2% | O=C(NC1CCCCC1)C(c1cccnc1)N(C(=O)c1csnn1)c1ccccc1 (stereo unspecified)
4.4% | COc1ccc(N2CCN(C(=O)CSc3ncnc4c3cnn4-c3ccc(OC)cc3)CC2)cc1
-7.7% | O=C(NCc1ccncc1)C12CC3CC(CC(Cl)(C3)C1)C2
-1.0% | O=C(Nc1cnccn1)Nc1ccc(Cl)cc1Cl

VDR inh | mol
-7.3% | CC(C)c1ccc(NC(=O)CN2C(=O)NC3(CCCCCCC3)C2=O)cc1
-15.0% | CNC(=O)C1CCC(Cn2c(=O)c3sccc3n(CC(=O)N3CCC(C)CC3)c2=O)CC1 (stereo unspecified)
-3.9% | CCN1CCN(CC(=O)N2N=C(c3cccs3)CC2c2ccc(C)cc2)C(=O)C1=O (stereo unspecified)
-4.5% | C(=C(c1ccccc1)c1ccccc1)c1ccccn1
-21.7% | Cc1cnc(NC(=O)CSCc2c(C)noc2C)s1
-1.1% | CCN(c1ccc(OC)cc1)S(=O)(=O)N1CCCC(C(=O)NCc2cccc(C)c2)C1 (stereo unspecified)
-17.5% | O=C(Nc1ccccc1N1CCCCC1)c1cc(S(=O)(=O)N2CCOCC2)ccc1F
-10.7% | O=C(c1cc(F)ccc1F)C1CCCN(C(=O)CCN2CCCCO2)C1 (stereo unspecified)
-0.3%&-0.6% | CCCCC[C@H](O)/C=C/C=C\C=C\C=C\[C@@H](O)[C@@H](O)CCCC(=O)O
-11.6% | COc1ccc(C2=CC(=O)OC3(CCCC3)O2)cc1
-12.8% | C/C(=N/NC(=O)CNC(=O)c1ccco1)c1ccc(Cl)cc1
-7.7% | Cc1cccc(NC(=O)C2CCCN(S(=O)(=O)c3c(C)n[nH]c3C)C2)c1 (stereo unspecified)

VDR inh | mol
-8.0% | Cc1nn(-c2ccccc2)c(/N=C/c2ccccc2O)c1-c1ccccc1
9.7% | Cc1ccccc1NC(=O)Cn1nc(-c2ccc(F)cc2)c2cnc3ccccc3c21
-8.7% | CC(C)C(c1nnnn1Cc1ccccc1)N1CCN(Cc2ccc3c(c2)OCO3)CC1 (stereo unspecified)
-1.5% | COC(=O)c1cnc(N2CCN(c3ccc(OC)cc3)CC2)c2ccccc12
-11.2% | CCOc1cc(NC(=S)NC)c(OCC)cc1NC(=O)c1cccs1
3.16µM* | O=C1/C(=C\c2ccc(Cl)c(Cl)c2)CN(C(=O)CCN2CCOCC2)C/C1=C/c1ccc(Cl)c(Cl)c1
-1.9% | CCN(CC)c1ccc2cc(C(N)=O)c(=O)oc2c1
-16.5% | N#Cc1cnn2ccn(C3OC(CO)C(O)C3O)c12 (stereo unspecified)
-21.1% | CC(C)n1cnc2c(Nc3ccc(C(=O)O)cc3)nc(Cl)nc21
12.2% | C=CCSc1nnc(NC(=O)c2c(CC)noc2C)s1
3.0% | CCOc1cc2c(cc1O)C(=NOC)CC1C2CCC2(C)C(O)CCC12 (stereo unspecified)
-24.7% | O=C(CSc1nc(-c2ccccc2)ns1)N1CCOCC1

# Some of the entries so far, field by field.
> O=C(CSc1nc(-c2ccccc2)ns1)N1CCOCC1
  VDR inh = -24.7%

> Cc1nn(-c2ccccc2)c(/N=C/c2ccccc2O)c1-c1ccccc1
  VDR inh = -8.0%

> CCOc1cc(NC(=S)NC)c(OCC)cc1NC(=O)c1cccs1
  VDR inh = -11.2%

> Cc1ccccc1NC(=O)Cn1nc(-c2ccc(F)cc2)c2cnc3ccccc3c21
  VDR inh = 9.7%

# (listing goes on)
VDR inh | mol
-2.3% | NCCNCCNCCNCCN
12.2% | Cc1ccc(NS(=O)(=O)c2cccc(C(=O)NCCCN3CCCC3=O)c2)cc1
-2.3% | O=C(CC(=O)NC1CCCCC1)N/N=C/c1ccc(Cl)cc1
2.5% | OC(CNCc1ccc(Cl)c(Cl)c1)c1ccccc1 (stereo unspecified)
6.7% | CC1(C(=O)OCC(=O)N2c3ccccc3Sc3ccccc32)CC1(Cl)Cl (stereo unspecified)
-18.8% | CCN(CC)C(=O)[C@H]1C[C@H](CC(=O)NCc2ccco2)C(=O)N2CCc3c([nH]c4ccc(Cl)cc34)[C@]12C
-14.4% | CN1CCN(C2Cc3ccc(F)cc3Sc3cc(F)c(Cl)cc32)CC1 (stereo unspecified)
-13.3% | Cc1ccc(-n2c(C)cc(C(=O)COC(=O)c3ccc[nH]c3=O)c2C)cc1
-3.9% | O=C(Nn1cnnc1)c1cccc(S(=O)(=O)N2CCOCC2)c1
-23.5% | Cn1c2c(c(=O)n(C)c1=O)C1c3ccccc3OCC1C(C)(C)O2 (stereo unspecified)
-16.3% | CC1(c2ccc3c(c2)OCO3)NC(=O)N(CC(=O)c2ccc[nH]2)C1=O (stereo unspecified)
-1.5% | Cc1cc(C)nc(NC(=NCCc2c[nH]c3ccc(Cl)cc23)NC(=O)c2ccccc2C)n1

VDR inh | mol
12.0% | CC(C)c1cnc2c(c1SCc1cccc(F)c1)c(=O)n(C)c(=O)n2C
-5.7% | CC(C)C(c1nnnn1C1CCCCC1)N1CCOCC1 (stereo unspecified)
-13.0% | COc1ccc(CC(=O)OCN2C(=O)c3ccccc3C2=O)cc1OC
14.9% | Cc1ccc2c(c1)c1ncnc(N3CCN(c4ccccc4)CC3)c1n2C
-10.6% | CCCc1[nH]nc2c1C(C1CCCCC1)C(C#N)=C(N)O2 (stereo unspecified)
8.7% | Cc1c(C(=O)OC(C)C)sc(NC(=O)c2cccnc2)c1C#N
20.4% | COc1ccc(Nc2ncc3c(n2)CCN(Cc2ccccc2C)C3)c(OC)c1
7.4% | O=C(CN1C(=O)C2(SCC(=O)N2c2cccc(Cl)c2)c2ccccc21)NCc1ccccc1 (stereo unspecified)
12.0% | CC1Cc2ccccc2N1C(=O)CSc1nnnn1C(C)C (stereo unspecified)
9.4% | Cc1cc(C)c(NC(=O)c2ncoc2-c2ccco2)c(C)c1
8.2% | COc1ccccc1NS(=O)(=O)c1cc(NC(=S)Nc2cc(C)cc(C)c2)ccc1Cl
-3.6% | CCOc1cc(C(=O)Nc2ccc(-c3nc4ncccc4o3)cc2C)cc(OCC)c1OCC

VDR inh | mol
-17.0% | Cc1c(NC(=O)CSc2ccc(Cl)cc2)cccc1-c1nc2cc(Cl)ccc2o1
1.4% | CCOc1ccc(CN2CCNC(=O)C2CC(=O)N(C)Cc2nonc2C)cc1 (stereo unspecified)
-2.8% | CCCCS(=O)(=O)N1CN(S(=O)(=O)CCCC)C2NC(=O)NC21 (stereo unspecified)
-5.3% | Cc1ccc(CN(C(=O)c2ccccc2)c2ccccn2)o1
3.6% | Cc1cc(C)cc(NC(=O)CSc2nc(=O)n3cc(C)ccc3n2)c1
3.3% | CC1CN(C(=O)CCC(=O)NC2CCCCC2)c2ccccc2S1 (stereo unspecified)
5.1% | CCn1c(CCNC(=O)c2cccs2)n[nH]c1=S
3.4% | CN(CC(=O)Nc1ccc(F)cc1)C(=O)COc1ncnc2ccccc12
-14.3% | COc1ccc(OC)c(NC(=O)CCN2CCCC(C)C2)c1 (stereo unspecified)
-18.8% | O=C(CSc1nnnn1-c1ccccc1)Nc1nsc(-c2ccc(Cl)cc2)n1
-3.8% | CCC(C)OC(=O)/C(C#N)=C/c1ccc(-c2ccc(Br)cc2)o1 (stereo unspecified)

# Quoted from the entries so far for reference:
VDR inh | mol
-17.0% | Cc1c(NC(=O)CSc2ccc(Cl)cc2)cccc1-c1nc2cc(Cl)ccc2o1
1.4% | CCOc1ccc(CN2CCNC(=O)C2CC(=O)N(C)Cc2nonc2C)cc1 (stereo unspecified)
-2.8% | CCCCS(=O)(=O)N1CN(S(=O)(=O)CCCC)C2NC(=O)NC21 (stereo unspecified)
